Cruzain inh noDet: qHTS Assay for Promiscuous and Specific Inhibitors of Cruzain (without detergent). 200,000 tested, 2.3% active. Cruzipain (Trypanosoma cruzi), P25779. Potency, µM, for the others: max response, negative = inhibition, actives largely listed as inhibitors. AID 1476, 2009. purified cruzain, Z-FR-AMC fluorescence, no detergent; active = well fitted curve in the direction sought with a large enough effect; inconclusive = small, poorly fitted or top-dose-only effect, or another doubt; inactive = no such curve, though single readings can be large; an effect the other way counts as inactive or inconclusive;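 also: plate controls were enzyme without inhibitor for no effect and buffer without enzyme for full effect; nearly all actives have a fitted effect of over 40% in size; top concentration of the series not given in the record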
Target sequence (P25779 123-467 limits assumed): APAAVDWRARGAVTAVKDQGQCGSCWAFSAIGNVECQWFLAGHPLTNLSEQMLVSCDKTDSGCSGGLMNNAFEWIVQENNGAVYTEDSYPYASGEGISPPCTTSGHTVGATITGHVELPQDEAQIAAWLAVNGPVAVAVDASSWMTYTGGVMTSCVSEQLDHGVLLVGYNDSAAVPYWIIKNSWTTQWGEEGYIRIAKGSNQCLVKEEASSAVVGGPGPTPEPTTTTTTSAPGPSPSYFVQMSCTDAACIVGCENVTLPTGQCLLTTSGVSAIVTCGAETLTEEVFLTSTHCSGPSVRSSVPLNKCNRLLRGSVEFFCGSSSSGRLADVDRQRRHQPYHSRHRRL
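Purified cruzain at 1.5 nM, pre-incubated 15 min with compound at room temperature in 100 mM sodium acetate pH 5.5, 5 mM DTT, 0.00005% Triton X-100. Reaction started with 2 uM Z-FR-AMC; AMC fluorescence increase over 60 s gives rate.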
Lassa entry inh: qHTS for Inhibitors of binding or entry into cells for Lassa Virus; Lassa virus pseudotype entry inhibition, cell reporter; control for the full effect not named in the record; Potency, µM (top dose mostly 37.9 µM), for the others: at the highest dose activity change, negative = inhibition, usual class: inhibitors; 300,000 tested, 1.2% active; AID 540256, 2011; active means well fitted inhibition curve with a large enough effect; inconclusive means small, poorly fitted or top-dose-only effect, or effect the other way; inactive means flat fitted curve, though single readings scatter; tested in HEK293 cells; also: % is scaled to controls: 0 for no effect and ±100 for the full control effect; nearly all actives have a fitted effect of over 50% in size; luciferase read-out
2A StopGo: High Throughput Screening for Foot and Mouth Disease Virus Antivirals; human cells with a luciferase reporter of 2A StopGo recoding; control for the full effect not named in the record; Potency, µM (doses to about 57.9 µM), for inactives: top-dose signal change, negative = less light; 410,000 tested, 1.2% active; AID 1159524, 2015; active = well fitted falling curve with a large enough effect; inconclusive = small, poorly fitted or top-dose-only effect; inactive = no such curve, though single readings can be large or run the other way; tested in HEK293T cells; also: % is scaled to controls: 0 for no effect and ±100 for the full control effect; nearly all actives have a fitted effect of over 45% in size; luciferase light after 4 h
SARS PLpro yeast: qHTS of Yeast-based Assay for SARS-CoV PLP; S. cerevisiae expressing SARS-CoV PLpro, growth rescue; control for the full effect not named in the record; Potency, µM (doses to about 32.9 µM), inactives show at the highest dose activity, positive = growth rescue; 330,000 tested, 0.19% active; AID 485353, 2010; also: 0% is about no effect; nearly all actives have a fitted effect of over 55% in size; growth read by luminescence after 48 h
MARV entry inh: qHTS for inhibitors of binding or entry into cells for Marburg Virus; Marburg virus pseudotyped entry inhibition, cell reporter; control for the full effect not named in the record; about a third of the inactives were read at about 46 µM; 300,000 tested, 1.8% active; Potency, µM (doses to about 37.8 µM), without a hit: top-dose activity change, negative = inhibition, actives largely listed as inhibitors; AID 540276, 2011; active = well fitted inhibition curve with a large enough effect; inconclusive = small, poorly fitted or top-dose-only effect, or effect the other way; inactive = flat fitted curve, though single readings scatter; tested in HEK293 cells; about a fifth of its hits are not listed in these tables; also: % is scaled to controls: 0 for no effect and ±100 for the full control effect; luciferase read-out
RE007 growth inh: qHTS Assay for Inhibitors of the HIV-1 protein Vpr; Potency, µM (highest dose often 92.2 µM), for inactives: at the highest dose activity change, negative = less growth; 360,000 tested, 0.21% active; AID 651644, 2012; S. pombe RE007 Vpr strain, BacTiter-Glo ATP luminescence, 24 h; control for the full effect not named in the record; active = well fitted falling curve with a large enough effect; inconclusive = small, poorly fitted or top-dose-only effect; inactive = no such curve, though single readings can be large or run the other way;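 also: % is scaled to controls: 0 for no effect and ±100 for the full control effect; nearly all actives have a fitted effect of over 50% in size; the assay follows cell death caused by Vpr and the record does not say whether a fall means rescue or toxicity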
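Fission yeast strain RE007, carrying one chromosomally integrated HIV-1 vpr copy, was seeded at OD 0.01 in PMG+AL medium with 23 nL pinned compound. After 24 h at 30 °C and 99% humidity, viability was read by BacTiter-Glo luminescence.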
Cruzain inh Det: qHTS Assay for Promiscuous and Specific Inhibitors of Cruzain (with detergent). Potency, µM, inactives show max response, negative = inhibition, actives largely listed as inhibitors. 200,000 tested, 0.43% active. purified cruzain, Z-FR-AMC fluorescence, 0.01% Triton. Cruzipain (Trypanosoma cruzi), P25779; active = well fitted curve in the direction sought with a large enough effect; inconclusive = small, poorly fitted or top-dose-only effect, or another doubt; inactive = no such curve, though single readings can be large; an effect the other way counts as inactive or inconclusive;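 also: plate controls were neutral wells for no effect and buffer without enzyme for full effect; nearly all actives have a fitted effect of over 40% in size; top concentration of the series not given in the record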
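Cruzain (1.5 nM) preincubated 15 min at RT with compound in 100 mM sodium acetate pH 5.5, 5 mM DTT, 0.01% Triton X-100. Reaction started with 2 uM Z-FR-AMC; AMC fluorescence (ex 360/em 450 nm) change over 60 s gave rate.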
NS1 function inh: qHTS Assay for Inhibitors of Influenza NS1 Protein Function. AID 2326, 2010. Potency, µM (highest dose often 46.1 µM), inactives show at the top dose activity, positive = more growth. 270,000 tested, 0.4% active. S. cerevisiae slowed by influenza A NS1, growth recovery by OD600; also: actives are rising curves; nearly all actives have a fitted effect of over 50% in size
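Growth recovery, yeast-based: influenza A NS1 expressed in S. cerevisiae causes slow growth, and suppressors are detected by OD600. The parent strain without NS1 is used as positive control.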
An asterisk follows results filed as active; ? = inconclusive; . = not tested or not shown; & = joins results of further samples; [ ] = dose if it differs, or a comment. Unless noted, calls follow the shape of the dose curve; as a rule, active means well fitted rising curve with a large enough effect; inconclusive means small, poorly fitted or top-dose-only effect; inactive means no such curve, though single readings can be large or run the other way. Potency is read from the fitted curve at half-maximal effect.

smiles	Cruzain inh noDet	Lassa entry inh	2A StopGo	SARS PLpro yeast	MARV entry inh	RE007 growth inh	Cruzain inh Det	NS1 function inh
Cc1ncc(CN2CCCCC2C(=O)Nc2ccc(Oc3ccccc3)nc2)cn1 (stereo not given)	.	0%	-13%	-3%	29%	14%	.	0%
COc1ccc(N2CCN(C(=O)c3sc4nc5n(c(=O)c4c3C)CCC5)CC2)cc1	2%	19%[46.1 µM]	-24%	.	.	.	-5.8%	.
O=C1N[C@@H](Cc2ccccc2)[C@@H](c2ccco2)O1	.	.	14%	0%	.	-2%	.	1%
O=C(Nc1ccc(CN2CCCCC2)cc1)c1c(F)c(F)c(F)c(F)c1F	.	20%[46.1 µM]	-13%	16%	?	-1%	.	6%
O=C(COC(=O)c1cnccn1)Nc1ccc(Cl)cc1	-24%	-16%	9%	0%	9%[46.1 µM]	-5%	-1.2%	-2%
O=C(/C=C/c1ccco1)Nc1ccc(Cl)c(-c2nc3cc(Cl)ccc3o2)c1	?	-18%[46.1 µM]	-1%	.	.	.	-8.8%	.
COc1cccc(Cn2c(=O)n(-c3ccc(C)c(F)c3)c(=O)c3sc4ccccc4c32)c1	-7%	24%[46.1 µM]	0%	.	-10%[46.1 µM]	.	-3.1%	.
COc1ccc(-c2n[nH]c(=S)n2/N=C/c2cccn2C)cc1	.	.	-5%	-1%	.	3%	.	7%
COc1ccc(C(=O)CN2C(=O)c3ccccc3C2=O)cc1	.	9%	55%[activator]	1%	19%	3%	.	1%
COc1cccc(N=Nc2c(N)[nH]n3c(=O)c4c(nc23)CCCC4)c1	.	?	?	0%	?	-2%	.	-1%
Cc1ccc(CSCC(Nc2ccc(C(=O)O)cc2[N+](=O)[O-])C(=O)O)cc1 (stereo not given)	-11%	-1%	.	3%	2%	7%	-5.5%	6%
COc1ccc(N2C(=O)CC(SC(C)C)C2=O)cc1 (stereo not given)	-14%	?	-9%	6%	1%	-7%	-2.2%	?
Cc1ccc(C2C3=C(CC(C)(C)CC3=O)N(CCN3CCOCC3)C3=C2C(=O)CC(C)(C)C3)cc1	?	15%	26%	-3%	1%&-5%	-9%	-8.2%	-3%
O=C1C(O)CC2c3ccccc3CC3(CCCC3)N12 (stereo not given)	2%	.	-22%	-3%	.	14%	-2.7%	-10%
COc1ccc2c(c1)c(CC(=O)OCC(=O)N(C)C)c(C)n2C(=O)c1ccc(Cl)cc1	.	?	12%	1%	25µM*	7%	.	8%
COc1ccc(-c2nc3c(-c4ccccc4)cnn3cc2C)cc1F	.	-23%	0%	1%	?	-20%	.	2%
CC(=O)Oc1ccccc1C(=O)N(C1CCCCC1)C1CCCCC1	.	.	?	0%	.	17%	.	-32%
O=S(=O)(NCc1nc2cccnc2n1Cc1ccccc1Cl)c1ccc2c(c1)CCCC2	-2%	-2%[46.1 µM]	28%	.	.	.	-5.7%	.
O=C(CNS(=O)(=O)c1ccccc1)NCc1cccnc1	.	15%	-13%	1%	19%	0%	.	0%
CCNC(=O)COc1ccc(CC)cc1	-11%	9%	21%	9%	?	-9%	2.6%	7%
O=C(COC(=O)C1CCN(c2ccc(C(F)(F)F)cn2)CC1)NCc1ccc(Cl)cc1Cl	.	10%[46.1 µM]	-4%	-2%	-24%	27%	.	.
COc1ccc(OC)c(NC(=O)c2ccc(-n3cccn3)nc2)c1	2%	9%	-19%	3%	?	-7%	6.0%	-13%
CC/C(C)=N\NC(=O)CNC(=O)c1ccc(Cl)cc1Cl	.	1%[46.1 µM]	-11%	-3%	3%[46.1 µM]	9%	.	.
N#Cc1c(-c2ccccc2)c(-c2ccccc2)nn(CC(=O)NNC(=O)Nc2ccccc2)c1=O	1%	?	0%	2%	?	2%	1.5%	29%
Cn1cccc1C(=O)Nc1ccc(Cl)c(S(=O)(=O)N2CCCCC2)c1	.	-8%	?	1%	?	-18%	.	.
Cc1nc(NC(=O)c2ccccc2)sc1-c1csc(Nc2ccc(C(=O)O)cc2)n1	.	?	-3%	-4%	?	3%	.	2%
COc1ccc(NC(=O)C2Cc3ccccc3CN2S(=O)(=O)c2ccccc2)cc1OC (stereo not given)	25%	-1%[46.1 µM]	40%[activator]	.	.	.	1.1%	.
Cc1oc(-c2cc3c(cc2Cl)OCO3)nc1CN1CCCC1c1ccc(F)cc1 (stereo not given)	.	-29%	-3%	1%	?	-15%	.	-2%
Cn1c(=O)c2c(nc(NCCOc3ccc(F)cc3)n2C)n(C)c1=O	.	17%	-28%	1%	1%	8%	.	1%
Cc1n[nH]c(C)c1S(=O)(=O)N(CC(=O)Nc1ccc(C(F)(F)F)cc1)c1ccc(C(C)C)cc1	-17%	-6%[46.1 µM]	-27%	.	?	.	-9.2%	.
COc1ccc(CNC(=O)C(=O)c2cn(CC(=O)N3CCCC3)c3ccccc23)cc1	.	?	20%	1%	4%	15%	.	1%
CC1CCCCC1NC(=O)c1nn(C)c(=O)c2ccccc12 (stereo not given)	4%	2%	-10%	7%	2%	-5%	-3.2%	3%
CCc1cc2c(cc3c(=O)n(CC(=O)N4CCN(c5cccc(C)c5C)CC4)nc(CC)n32)s1	0%	.	-10%	.	?	.	-1.2%	.
O=[N+]([O-])c1ccc2c(c1)/C(=N\O)c1ccccc1-2	.	-3%	-2%	-3%	?	5%	.	7%
COC(=O)C1=C(c2ccccc2)c2ccccc2S(=O)(=O)N1CC(=O)Nc1ccccc1C(F)(F)F	-3%	?	8%	.	.	.	-7.0%	.
CCN(CC)S(=O)(=O)c1ccc(N2CCc3cc(OC)c(OC)cc3C2)nc1	.	?	-20%	-6%	?	0%	.	4%
COc1cccc(CN2CCCC(C(=O)c3ccc4c(c3)OCO4)C2)c1OC (stereo not given)	.	-14%[46.1 µM]	-13%	0%	11µM*	3%	.	-2%
COc1cccc(OCCNC(=O)CSc2ccc(C(F)(F)F)cc2[N+](=O)[O-])c1	28%	-2%	-11%	-4%	?	-8%	-10%	5%
Oc1cccc(-n2nnnc2SCc2ccccc2F)c1	.	.	42%[activator]	-4%	.	8%	.	7%
COC(=O)C1CN(C(=O)COc2ccccc2C)c2ccccc2O1 (stereo not given)	.	0%[46.1 µM]	19%	-2%	7%[46.1 µM]	-10%	.	-5%
O=C(Nc1ccccc1)C1CCCN1S(=O)(=O)c1cccs1 (stereo not given)	.	26%	4%	1%	13%[46.1 µM]	6%	.	.
COCCNC(=O)COc1ncnc2ccc(Br)cc12	-8%	8%	1%	2%	-9%	20%	3.0%	4%
CC(C)(C)CNC(CO)C12CC3CC(CC(C3)C1)C2 (stereo not given)	5%	-11%	-9%	3%	5%	-3%	3.8%	-3%
CC1CCN(CC(=O)NC(=O)NCc2ccccc2)CC1	-12%	-6%	14%	13%	?	9%	-1.0%	6%
CC1=CC(=O)C(C(C)=Nc2cccc(Cl)c2)C(=O)O1 (stereo not given)	.	6%[46.1 µM]	2%	.	18%[46.1 µM]	-8%	.	.
Cc1c(C(=O)NNC(=O)c2ccccc2O)oc2ccc(Br)cc12	.	?	34%[activator]	.	-4%	-24%	.	.
COc1cccc(C(=O)Nc2nnc(-c3cccs3)o2)c1	0%	.	13%	-16%	.	-24%	0.9%	-199%
CCN(CC)S(=O)(=O)c1ccc(OC)c(NC(=O)C(Cc2ccccc2)N2C(=O)c3ccccc3C2=O)c1 (stereo not given)	7%	.	.	9%	-3%	.	-0.8%	27%
O=C(Nc1ccccc1)OCN1C(=O)c2ccccc2C1=O	-10%	14%	26%	0%	?	11%	6.8%	6%
Fc1cc2[nH]cnc2cc1Cl	.	.	-7%	1%	.	12%	.	-3%
COc1ccc(S(=O)(=O)NC(CC(=O)NCCc2ccccc2)c2ccco2)cc1 (stereo not given)	5%	-10%	.	1%	-5%	3%	0.6%	-1%
C/C(CC(=O)NC1CCCC1)=N\NC(=O)Cc1csc(N)n1	0%	-2%	-15%	9%	?	0%	-0.8%	18%
Cc1cc(C(=O)Nc2c(F)cc(F)cc2Br)cs1	.	.	0%	-5%	.	-8%	.	-13%
CCn1nc(C)c(/C=C/C(=O)Nc2ccc(C)cc2C)c1C	8%	?	-26%	?	0%	37%	-17%	0%
Cc1ccc(Cn2c(SCC(=O)NCc3ccccc3Cl)nc3ccsc3c2=O)cc1	2%	20%[46.1 µM]	-14%	.	.	.	1.5%	.
COc1cc(-c2nc(-c3cccc(C)c3)no2)cc(OC)c1OC	?	-2%	.	-49%	7%	-15%	-8.5%	-4%
CCN(Cc1ccccc1)C(c1ccccn1)c1nnnn1C(C)(C)CC (stereo not given)	0%	8%	.	1%	?	13%	-3.1%	-14%
CCCn1c(NCc2ccc(N(CC)CC)cc2)nc2ccccc21	9%	-8%[46.1 µM]	-10%	.	?	.	-0.2%	.
CCCCC(=O)N1CCN(c2nc3ccc(Cl)cc3s2)CC1	.	-7%[46.1 µM]	3%	-5%	?	-17%	.	-27%
COc1ccc(CNc2nc(-c3cccnc3)nn2C(C)=O)cc1	.	0%	6%	-5%	2%	-6%	.	.
NC(=O)c1cc([N+](=O)[O-])ccc1N1CCN(Cc2ccccc2)CC1	.	-1%[46.1 µM]	-9%	-4%	0%[46.1 µM]	-20%	.	-7%
COc1ccc(C(CNC(=O)C2CC(=O)N(Cc3ccc(C)cc3)C2)N(C)C)cc1 (stereo not given)	-8%	10%	-3%	2%	?	-12%	0.0%	-2%
CCc1ccc(NC(=O)COc2coc(CN3CCc4ccccc4C3)cc2=O)cc1	.	-28%	?	-5%	-16%	3%	.	.

Screening results: PubChem BioAssay, National Center for Advancing Translational Sciences (NCATS)
